Compound activity from PubChem.
VDR inhibitor = inhibitors of human vitamin D receptor. P11473. VDR-SRC2-3 peptide fluorescence polarization, 2 h. Potency, µM, inactives show max response, negative = inhibition, hits mostly inhibitors. 0.93% of 400,000 active. AID 504847; active = well fitted inhibition curve with a large enough effect; inconclusive = small, poorly fitted or top-dose-only effect, or another doubt; inactive = no such curve, though single readings can be large or run the other way; also: series mostly up to about 120 µM
Target sequence (P11473 whole entry, looked up): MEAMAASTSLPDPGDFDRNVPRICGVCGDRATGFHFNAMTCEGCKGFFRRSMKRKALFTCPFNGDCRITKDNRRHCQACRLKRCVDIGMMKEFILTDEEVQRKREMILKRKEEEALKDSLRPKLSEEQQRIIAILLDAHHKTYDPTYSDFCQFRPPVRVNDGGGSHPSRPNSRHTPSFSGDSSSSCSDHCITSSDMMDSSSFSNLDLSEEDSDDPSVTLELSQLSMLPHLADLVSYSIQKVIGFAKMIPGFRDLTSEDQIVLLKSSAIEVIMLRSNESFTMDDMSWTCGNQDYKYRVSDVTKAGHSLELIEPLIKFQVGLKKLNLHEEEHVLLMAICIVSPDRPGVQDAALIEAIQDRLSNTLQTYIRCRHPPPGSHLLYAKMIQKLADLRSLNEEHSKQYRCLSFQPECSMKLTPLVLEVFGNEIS
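Fluorescence polarization assay of small-molecule disruption of VDR binding to coregulator peptide SRC2-3. Compounds and controls pin-transferred, then read after 2 h incubation at ambient room temperature.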
* hit, by the source's call; ? = inconclusive. % is scaled to controls: 0 for no effect and ±100 for the full control effect; potency is read from the fitted curve at half-maximal effect.

Compound	VDR inhibitor
CCCC(CCC)C(=O)Nc1cc(-c2cn3cccnc3n2)ccc1OC	0%
CCOC(=O)C1CCN(C(=O)COc2ccc3c(C)cc(=O)oc3c2)CC1	-7%
COc1ccc(Nc2nc(NCc3ccco3)nc(N/N=C/c3ccccc3F)n2)cc1	-6%
COc1ccc(N2CCN(C(CNC(=O)C(C)C)c3ccc4c(c3)OCO4)CC2)cc1 (centres undefined)	3%
C[C@@]12C(=O)Nc3ccc(F)cc3C(=O)N1[C@H]1c3cc(Cl)ccc3OC[C@@H]1[C@@H]2c1ccccc1	1%
O=C(Nc1ccccc1)c1ccccc1NC(=O)C(F)(F)F	-2%
Fc1ccc(NCc2nnc3n2CCCCC3)cc1	-9%
CCCCC/C=C\C/C=C\CCCCCCCCCC(N)=O	-2%
COc1ccc(-c2ccc(SCC(=O)N3CCOCC3)nn2)cc1	-1%
COc1ccccc1C1CCN(c2ccc([N+](=O)[O-])cn2)CC1	-11%
Cc1cc(C)n(-c2cc(N3CCN(C(=O)c4ccc(C(C)(C)C)cc4)CC3)ccc2[N+](=O)[O-])n1	-18%
Cc1ccc(/C=N/NC(=O)c2ccoc2C)o1	-2%
CC(=O)NC1C(=O)N(CCN2CCOCC2)c2ccc(F)cc21 (centres undefined)	?
CC1CN(C(=O)COc2coc(CN3CCc4ccccc4C3)cc2=O)CC(C)O1 (centres undefined)	-23%
COC(=O)c1ccc(/C=C2\SC(=S)N(CCCC(=O)NCCCN3CCOCC3)C2=O)cc1	0%
Cc1ccsc1/C=C1/SC(=O)N(CC(=O)N2CCOCC2)C1=O	0%
Cc1ccc(NC(=O)/C(=C\c2ccc3c(c2)OCO3)NC(=O)c2ccco2)cc1	-13%
CC(C)(C)OC(=O)NCCCC[C@H](NC(=O)c1[nH]cnc1C(=O)Nc1ccc(Cl)cc1)C(=O)OC(C)(C)C	-3%
O=C1C(Cl)=C(N2CCCCC2)C(=O)N1c1ccccc1	?
COc1cccc(-c2nn(C)c3sc(C(=O)NCc4ccccn4)cc23)c1	14%
Cc1cc(C)c(NC(=O)CN(C)CC(=O)N(C)CC(=O)Nc2c(Cl)cccc2Cl)c(C)c1	3%
CC(Oc1ccccc1)C(=O)OCC(=O)N1CC(=O)Nc2ccccc21 (centres undefined)	8%
Cc1ccc(CS(=O)(=O)CC(C)(O)c2ccccc2)cc1 (centres undefined)	18%
CCn1cc(S(=O)(=O)c2cc(C)cc(C)c2)c(=O)c2cc(F)c(N3CCC(C)CC3)cc21	0%
CCCCOC(=O)c1ccc(OC(=O)N2CCOCC2)cc1	0%
Cc1ccc(C)c(/C=N/n2cc(-c3ccccc3)[nH]c2=S)c1	8%
CC1Cc2ccccc2N1C(=O)CSc1nc2ccccc2n1CC(=O)N1CCOCC1 (centres undefined)	13%
CC(C)C(NS(=O)(=O)c1cccs1)C(=O)NCCN1CCN(c2ccccc2)CC1 (centres undefined)	-5%
COc1ccc2cc(CN(CCc3ccccc3)Cc3nnnn3Cc3ccco3)c(=O)[nH]c2c1	-13%
COc1ccc(C2C(C(=O)N3CCOCC3)CCC(=O)N2c2cc(OC)c(OC)c(OC)c2)cc1 (centres undefined)	-6%
Cc1ccc(C(=O)NC(=C(Cl)Cl)S(=O)(=O)c2ccc(Cl)cc2)cc1	-15%
CN(C)S(=O)(=O)c1ccc(Cl)c(NC(=O)CSc2nc3c(cc2C#N)C(=O)CC(C)(C)C3)c1	-20%
O=C(c1cccs1)c1ccc(-c2cccs2)s1	10%
CCOC(=O)C1CCCN(C(=S)Nc2ccc(S(=O)(=O)N3CCOCC3)cc2)C1 (centres undefined)	-1%
CCCCCCCC(=O)OC(CN1CCCCCC1)CN1CCCC1=O (centres undefined)	-13%
CC(=O)Oc1ccc(C(=O)Nc2ccc(S(=O)(=O)NCC3CCCO3)cc2)cc1 (centres undefined)	3%
Cc1c(NC(=O)c2ccc(-c3cccc([N+](=O)[O-])c3)o2)cccc1-c1nc2cc(Cl)ccc2o1	-7%
O=C(NCCc1ccccc1)C1CCCN1C(=O)Nc1ccc(Cl)cc1 (centres undefined)	9%
NC(=O)c1ccc[n+]([C@@H]2OC(COP(=O)([O-])OP(=O)(O)OCC3OC(n4cnc5c(N)ncnc54)C(OP(=O)(O)O)C3O)C(O)C2O)c1 (some centres undefined)	-1%
COc1ccc(NC(=O)c2c[nH]c(=O)n(-c3ccc(C)c(C)c3)c2=O)c(OC)c1	-12%
CS(=O)(=O)N1CCc2cc(C(=O)Nc3ccccc3Cl)ccc21	-3%
Cc1nc(CNS(=O)(=O)c2cc([N+](=O)[O-])ccc2C)cs1	3%
CCc1ccc2[nH]c(=O)c(CN(Cc3ccccc3OC)Cc3nnnn3Cc3ccco3)cc2c1	11%
O=C(CN1C2=NCCN2c2ccccc21)c1cccs1	-18%
Cc1cc(C)cc(NC(=O)CSc2nnc(Cn3c(=O)sc4ccccc43)n2C)c1	-15%
CCOc1ccccc1NC(=O)Nc1ccc2nc(N3CCN(C)CC3)cc(C)c2c1	14%
O=C(Nc1nc2nc(-c3ccccc3)cc(=O)n2[nH]1)c1ccc(F)cc1	-2%
O=C(CCNC(=O)c1ccco1)Nc1ccc(Cl)c(C(F)(F)F)c1	-6%
CCOc1ccccc1C(=O)NCc1ccc2c(c1)CCN2C(=O)c1ccc(F)cc1	17%
COC(=O)c1cc(=O)nc2sc(-c3cccs3)nn12	0%
Nc1nc(SCc2nc3sc4c(c3c(=O)[nH]2)CCCC4)n[nH]1	-11%
Cc1ccc(NC(=O)c2ccc3c(c2)nnn3C)cc1	-25%
Cc1n[nH]c2ccccc2c1=O	-17%
O=c1oc2ccccc2cc1-c1csc(Nc2nc3c(F)cccc3s2)n1	-15%
CCn1nc(C(=O)OCc2c(C)noc2C)c2ccccc2c1=O	-6%
Cc1ccccc1CNC(=O)CCCC(=O)n1nc(C)c2ccccc21	5%
O=C(O)CSc1nc2sc3c(c2c(=O)n1Cc1ccccc1)CCCCC3	-25%
Cc1ccc(CSc2oc(-c3ccco3)nc2S(=O)(=O)c2ccc(C)cc2)cc1	5%
CCOC(=O)C1CCN(Cc2nc(-c3ccc(OC)c(OC)c3)no2)CC1	-3%
O=C(COC(=O)COc1ccc(Cl)cc1)NC1CCS(=O)(=O)C1 (centres undefined)	-10%

An excerpt from above in order of formula weight, falling.
Compound	VDR inhibitor
Cc1cc(C)cc(NC(=O)CSc2nnc(Cn3c(=O)sc4ccccc43)n2C)c1	-15%
Cc1ccc(CSc2oc(-c3ccco3)nc2S(=O)(=O)c2ccc(C)cc2)cc1	5%
COc1ccc(NC(=O)c2c[nH]c(=O)n(-c3ccc(C)c(C)c3)c2=O)c(OC)c1	-12%
O=C(NCCc1ccccc1)C1CCCN1C(=O)Nc1ccc(Cl)cc1 (centres undefined)	9%

Going on with the list.
Compound	VDR inhibitor
COc1ccc(CCNC(=O)c2ccccc2OCc2c(C)noc2C)cc1	6%
Cn1nnnc1SCC(=O)Nc1ccc(C(=O)N2CCN(Cc3ccccc3F)CC2)cc1	-17%
COc1ccc(C(=O)Nc2ccc3oc(-c4ccc(OC)cc4)nc3c2)cc1	1%
CC(C)(Cc1ccccc1)/[N+]([O-])=C\c1ccccc1	-13%
CCN(C[C@H]1N[C@@](Cc2ccccc2)(C(=O)OC)[C@H]2C(=O)N(C)C(=O)[C@@H]12)S(=O)(=O)c1ccc(-c2ccccc2)cc1	-30%
Cc1ccc(OCc2ccc(C(=O)Nc3nccs3)o2)cc1	-12%
O=C(c1cc([N+](=O)[O-])ccc1Cl)N1CCN(Cc2ccc3c(c2)OCO3)CC1	-3%
Cn1nnnc1SCC(=O)NC1CCCCC1	-1%
CN(C)CCCSc1nc(-c2ccccc2)nc2c1CCC2	0%
CCOC(=O)Cc1csc(NC(=O)C(NC(=O)C2CCC(C)CC2)C(C)C)n1 (centres undefined)	-11%
CCOC(=O)c1ccc(NC(=O)CSc2nc3c(c(=O)n2-c2ccccc2OC)SCC3)cc1	7%
COc1ccc(Cl)cc1N/C(N)=N/c1nc(C)cc(=O)[nH]1	?
COc1ccc(C2(C)NC(=O)N(CC(=O)Nc3ccc(S(=O)(=O)N4CCCC4)cc3)C2=O)cc1 (centres undefined)	-8%
CCSC1=C(C#N)C2(CCCCC2)C2=C(CC(C)(C)CC2=O)N1	17%
CC(C(=O)Nc1ccc2c(c1)OCO2)N(C)CC(=O)Nc1ccc(Cl)cc1 (centres undefined)	-9%
O=C(O)C(c1ccccc1)C(c1ccccc1)c1ccccc1 (centres undefined)	11%
Cc1ccc(N2CC(C(=O)OCc3ccc([N+](=O)[O-])cc3)CC2=O)cc1 (centres undefined)	9%
Clc1cccc(Oc2ncccn2)c1	-8%
O=C(Nc1ccccc1Cl)c1ccc([N+](=O)[O-])o1	?
COc1ccc2c(c1OC)OCC(c1ccc(OC)c(OC)c1OC)C2 (centres undefined)	0%
CCOc1ccccc1NC(=O)c1c(NC(=O)COc2ccccc2)sc2c1CCCCC2	-14%
CC(O)C(NS(=O)(=O)c1ccc(Cl)cc1)C(=O)OCc1nnc(-c2ccccc2)o1 (centres undefined)	8%
COc1ccc(S(=O)(=O)N2CC3CCCN3c3cc(C(F)(F)F)ccc32)cc1 (centres undefined)	20%
CC(C)Cc1ccc(S(=O)(=O)N2CCCC2)cc1	6%
Cc1ccc(Cc2nnc(SCC(=O)Nc3ccccc3C)[nH]c2=O)cc1	-5%
CCOC(=O)c1cnc(/N=C/N(C)C)s1	2%
Cc1ccc(C)c(NC(=O)COC(=O)c2cccc(S(=O)(=O)N3CCCCC3)c2)c1	3%
CCc1nnc(NC(=O)CSc2ccc(-c3ccco3)nn2)s1	-14%
COc1ccc(C(=O)CSc2nc3ncccc3[nH]2)cc1OC	-1%
CC(C)C(OC(=O)c1cccs1)C(=O)NCc1cccs1 (centres undefined)	1%

Molecules listed so far containing a CF3 group:
Compound	VDR inhibitor
O=C(Nc1ccccc1)c1ccccc1NC(=O)C(F)(F)F	-2%
O=C(CCNC(=O)c1ccco1)Nc1ccc(Cl)c(C(F)(F)F)c1	-6%
COc1ccc(S(=O)(=O)N2CC3CCCN3c3cc(C(F)(F)F)ccc32)cc1 (centres undefined)	20%

Additional records:
Compound	VDR inhibitor
CCc1c(C)c2ccc(OC(C)C(=O)NC(Cc3c[nH]c4ccc(O)cc34)C(=O)O)c(C)c2oc1=O (centres undefined)	-15%
NNC(=O)c1cc2c(s1)CCCCCC2	?
Cc1cccc(C(=O)Nc2ccc3oc(-c4ccncc4)nc3c2)c1	2%
Cc1cccc(NC(=O)C2CCN(S(=O)(=O)c3cccc4nsnc34)CC2)c1C	-18%
CC1CCN(C(=O)c2ccc(S(=O)(=O)Cc3cc(F)ccc3F)c([N+](=O)[O-])c2)CC1	?
CC(NC(=O)COC(=O)c1cccc(S(=O)(=O)N2CCCC2)c1)c1ccccc1 (centres undefined)	-9%
COc1cc(OC)c(C(=O)NCc2cccnc2)cc1OC	-18%
Cn1c(=O)oc2cc(S(=O)(=O)N3CCCC(C(=O)Nc4nccs4)C3)ccc21 (centres undefined)	17%
Cc1nn(Cc2ccc([N+](=O)[O-])cc2)c(=O)n1-c1ccccc1Cl	-10%
CSc1nncn1/N=C/c1ccccc1F	14%
COc1ccc(C(C(=O)NC(C)(C)C)N(CC2CCCO2)C(=O)CCC(=O)Nc2cc(C)on2)cc1 (centres undefined)	-11%
COc1ccccc1NS(=O)(=O)c1cc(NC(=S)NCCN2CCOCC2)ccc1N1CCOCC1	79µM*
O=C(c1cccc(F)c1)N1CCC2(CC1)CCN(C(c1ccccc1)c1ccccc1)CC2	-18%
O=C(Cn1c(SCC(=O)Nc2ccc(F)cc2)nc2ccccc21)NCc1ccc(F)cc1	6%
CN1C(=O)Nc2cccc3cccc1c23	-1%
COc1ccc(NC(=O)Nc2cnccn2)cc1OC	10%
CC(OC(=O)c1cc(O)c2ccccc2c1O)C(=O)Nc1ccc(C(N)=O)cc1 (centres undefined)	?
COC(=O)c1ccccc1NC(=O)c1ccc(Cn2cc(Cl)cn2)o1	4%
CCOC(=O)N1CCC2(CC1)CC(=O)c1cc(O)ccc1O2	-8%
COc1cc(C2Nc3ccccc3NC3=C2C(=O)CC(C)(C)C3)cc(OC)c1OC (centres undefined)	-26%
Cc1cc(C)cc(NC(=S)/N=C(\N)Nc2nc(C)c3ccccc3n2)c1	?
Cc1ccc2nc(NC(=O)c3cccc(-c4cc5ccccc5oc4=O)c3)sc2c1	18%
CC(C)CCN(C(=O)Nc1ccc(Cl)c(Cl)c1)C(C)c1cccs1 (centres undefined)	?
COc1ccc2cc(CNc3ccc(OC)c(OC)c3)c(=O)n(CC(=O)Nc3ccccc3F)c2c1	18%
N#Cc1c(=O)c2nc(NCCCO)ncc2n2c(=O)c3ccccc3[nH]c12	-11%
O=C(Nc1ccccc1-c1ccccc1)c1ccc(Br)o1	25%
COc1ccc(NC(=O)CC2C(=O)N(c3ccc(C)cc3)C(=O)N2C2CCCC2)cc1 (centres undefined)	1%
C[C@@H]1NC(=O)c2cc([N+](=O)[O-])cc(I)c2OCC[C@@H](C(N)=O)NC(=O)[C@H](CCCCN)NC1=O	1%

This is a subset. The share of hits here may be higher or lower than overall.
